PKD1 kinase inh: inhibitors of human PKD1 kinase, biochemical, fluorescence polarization. Serine/threonine-protein kinase D1 (Homo sapiens), Q15139. inhibition, %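 (about 10 µM by stock and volumes)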. AID 797, 2007. 200,000 compounds, 0.056% hits. PKD1 kinase fluorescence polarization assay;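 active means inhibition of 50% or more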;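 further: controls were vehicle for no effect and a reference inhibitor for full effect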
Target sequence (Q15139 whole entry, looked up): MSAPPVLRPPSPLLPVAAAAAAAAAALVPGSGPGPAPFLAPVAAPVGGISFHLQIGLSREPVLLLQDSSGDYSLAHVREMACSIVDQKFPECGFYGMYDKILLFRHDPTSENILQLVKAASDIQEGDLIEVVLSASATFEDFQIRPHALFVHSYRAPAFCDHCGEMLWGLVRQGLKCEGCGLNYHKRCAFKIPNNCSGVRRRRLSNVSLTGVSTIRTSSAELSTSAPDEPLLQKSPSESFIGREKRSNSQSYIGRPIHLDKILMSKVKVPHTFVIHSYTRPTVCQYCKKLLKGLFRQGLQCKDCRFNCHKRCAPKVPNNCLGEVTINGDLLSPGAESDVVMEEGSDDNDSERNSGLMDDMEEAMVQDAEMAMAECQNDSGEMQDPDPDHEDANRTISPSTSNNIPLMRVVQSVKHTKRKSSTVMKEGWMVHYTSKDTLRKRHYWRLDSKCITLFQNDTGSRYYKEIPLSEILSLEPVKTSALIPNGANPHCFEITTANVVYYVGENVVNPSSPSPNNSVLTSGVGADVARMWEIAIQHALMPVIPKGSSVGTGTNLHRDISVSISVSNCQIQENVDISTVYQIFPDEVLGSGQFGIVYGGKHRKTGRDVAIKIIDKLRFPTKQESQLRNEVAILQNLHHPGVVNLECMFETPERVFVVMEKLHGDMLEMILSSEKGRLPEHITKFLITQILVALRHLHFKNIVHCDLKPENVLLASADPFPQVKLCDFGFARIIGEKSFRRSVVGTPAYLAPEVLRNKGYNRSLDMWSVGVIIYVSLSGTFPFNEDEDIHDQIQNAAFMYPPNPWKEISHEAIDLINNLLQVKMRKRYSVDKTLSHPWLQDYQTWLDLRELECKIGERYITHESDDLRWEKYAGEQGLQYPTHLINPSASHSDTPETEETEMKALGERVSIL
RGS16-Gao: modulators of RGS16 binding to Galphao, primary screen, biochemical, human proteins, multiplexed bead flow cytometry; bead-based flow cytometry RGS16-Galphao binding, fluorescence; actives lie on both sides; AID 1441, 2008; binding response (% of control), % at 10 µM; Regulator of G-protein signaling 16 (Homo sapiens) + Guanine nucleotide-binding protein …; 220,000 compounds, 0.38% hits;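 active means below 25% or above 175%, edge rows of some plates excepted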;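 further: Galphao activated by GDP with aluminum fluoride before binding; 100% = wells without compound and 0% = beads without RGS; some results beyond the cut were filed as inactive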
Insulin prom inh: inhibitors of insulin promoter-driven GFP, primary screen, imaging, TRM-6 cells (human fetal islet line), eGFP reporter, cell count | 130,000 compounds, 0.9% hits | inhibition, % at 2 µM | reporter expression induced with tamoxifen;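 active means inhibition above the mean plus 3 SD, with well images judged a real hit on visual review, cut at about 60% in these data, passing the limit was not always enough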
GALR2 agonist: GALR2 receptor agonists, primary screen, cell-based; 140,000 compounds, 0.48% hits; GALR2-expressing cells, agonist activation read-out; activation, %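 (tested at 5 µM)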; AID 803, 2007;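 active means above mean plus 3 SD of all compounds, about 5% in these data, not always enough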;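 further: 0% = vehicle buffer wells and 100% = reference agonist at full effect; tested in CHO reporter cells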
HSV replic up: enhancers of HSV replication in host cells, fold increase, host cell viability; 220,000 compounds, 0.005% hits; AID 1956, 2009; maximum fold increase; HSV replication augmentation in cells;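 active means peak rise of 1.5-fold or more in the series; tested in PC3 cells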;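 further: first round at 10 µM; read as green reporter fluorescence; hits show the peak of a series up to 25 µM; 1 = signal of infected wells without compound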
Insulin prom inh cell count: second read-out of Insulin prom inh, no call of its own (marks repeat the call); normalized cell count, %; measured here: cell count, toxicity; reference of the scale not given here;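 cells exposed to compound for 48 h; stained nuclei by imaging scaled within each plate; lower means fewer cells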
HSV replic up primary fold: second read-out of HSV replic up, no call of its own (marks repeat the call); fold increase; compound at 10 µM; measured here: primary screen fold increase 10 uM; tested in PC3 cells;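 GFP signal in the first replicate; 1 = infected wells without compound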
Active calls of the source: *; i = inactive; x = not tested or not shown.

The first six compounds (preview)
SMILES	PKD1 kinase inh	RGS16-Gao	Insulin prom inh	Insulin prom inh cell count	GALR2 agonist	HSV replic up	HSV replic up primary fold
Cn1c(=O)c2[nH]c(CN(Cc3ccccc3)Cc3ccccc3)nc2n(C)c1=O	-11	106	35	100	-3.0	x	x
O=c1cc(-c2ccccc2)nc(N2CCN(Cc3ccccc3)CC2)[nH]1	-5	101	23	192	1.0	i	0.78
CN(C)c1ccc(-n2cccc2/C=N/n2cnnc2)cc1	4	102	5	124	-0.3	i	1
O=C(NCCCn1ccnc1)C(=O)NCC1OCCCN1S(=O)(=O)c1ccccc1 (configuration not stated)	-5	103	0	138	-1.6	i	0.95
CCc1nnc(NC(=O)c2ccc(-c3ccccc3Cl)o2)s1	23	118	-11	98	-2.7	i	0.74
CCOC(=O)N1CCN(S(=O)(=O)c2cc(Cl)ccc2Cl)CC1	-8	99	x	x	-0.5	i	0.94

All compounds of this part, repeating the preview:
SMILES	PKD1 kinase inh	RGS16-Gao	Insulin prom inh	Insulin prom inh cell count	GALR2 agonist	HSV replic up	HSV replic up primary fold
Cn1c(=O)c2[nH]c(CN(Cc3ccccc3)Cc3ccccc3)nc2n(C)c1=O	-11	106	35	100	-3.0	x	x
O=c1cc(-c2ccccc2)nc(N2CCN(Cc3ccccc3)CC2)[nH]1	-5	101	23	192	1.0	i	0.78
CN(C)c1ccc(-n2cccc2/C=N/n2cnnc2)cc1	4	102	5	124	-0.3	i	1
O=C(NCCCn1ccnc1)C(=O)NCC1OCCCN1S(=O)(=O)c1ccccc1 (configuration not stated)	-5	103	0	138	-1.6	i	0.95
CCc1nnc(NC(=O)c2ccc(-c3ccccc3Cl)o2)s1	23	118	-11	98	-2.7	i	0.74
CCOC(=O)N1CCN(S(=O)(=O)c2cc(Cl)ccc2Cl)CC1	-8	99	x	x	-0.5	i	0.94
CCn1c(SCC(=O)Nc2sc(C)c(C)c2C#N)nnc1C1CC1	x	94	x	x	x	i	0.96
O=C(c1ccco1)N1CCCSC1=Nc1ccccc1	4	89	18	120	-1.9	i	0.87
COc1cccc(NC(=O)Nc2cc(C)ccc2OC)c1	2	22*	x	x	x	i	1.1
Cn1c(-c2ccc3ccccc3n2)nc2cnccc21	12	101	x	x	-1.8	i	0.99
CC(C)CC(NC(N)=O)C(=O)OCC(=O)NC(=O)NC1CCCC1 (configuration not stated)	-9	99	x	x	-0.3	i	1
CCOC(=O)N1CCN(C(=O)C(=O)Nc2ccc3nc4n(c(=O)c3c2)CCCCC4)CC1	-11	99	x	x	-1.3	i	0.88
COC(=O)C(C(=O)OC)C(C)C(C(=O)OC)C(=O)OC	-4	98	39	121	-0.6	i	0.77
COC(=O)c1nn(-c2ccccc2)ccc1=O	7	104	-200	88	0.3	i	0.98
O=C(OCc1ccccc1)c1cccc(-c2nnc(-c3ccccc3)o2)c1	-1	103	28	93	-1.5	i	0.82
CCOc1cc(C(=O)NCc2ccc(-c3nc4ccccc4o3)cc2)cc(OCC)c1OCC	-13	103	-10	75	-2.7	i	0.99
O=C(Cn1c(-c2cncs2)nc2ccccc21)NCc1ccccc1	4	100	-173	70	-2.2	i	0.86
O=C(CSc1ncn[nH]1)Nc1ccc2c(c1)OCCO2	-6	130	-31	114	-1.8	i	0.83
O=C(Nc1ncc2c(n1)CC(c1ccco1)CC2=O)c1ccc(Cl)cc1 (configuration not stated)	-12	100	x	x	-3.8	x	x
CC(C)=CCN1CCN(Cc2ccc(N3CCNC3=O)cc2)CC1CCO (configuration not stated)	4	105	x	x	x	i	0.84
CCSc1nnc(NC(=O)c2cc(OC)c(OC)c(OC)c2)s1	2	62	44	53	x	i	0.89
CC(=O)Nc1ccc(Sc2ccccc2C(=O)O)c(C(=O)O)c1	x	92	x	x	x	i	0.97
O=C(CSc1nnc(-c2ccc(O)cc2)n1Cc1ccco1)c1ccccc1	0	114	-77	94	-1.8	i	0.97
Cc1cc(C(=O)NCC(=O)OCC(=O)N2CCCCCC2)ccc1[N+](=O)[O-]	-3	106	x	x	-0.4	i	1.1
CN(C)S(=O)(=O)c1cc(NC(=O)CN2CCN(c3ccccc3O)CC2)ccc1Cl	-6	100	-17	118	x	i	0.86
CCN(CC)CCCNC(=S)N(Cc1ccco1)Cc1cc2cc3c(cc2[nH]c1=O)OCCO3	11	99	x	x	0.8	i	0.99
Cc1sc2nc(SCC(=O)NCc3ccco3)n(C)c(=O)c2c1C	-21	87	-27	70	-0.6	i	0.85
O=C(Nc1ccccc1C(F)(F)F)N1CCN(C(c2ccccc2)c2ccccc2)CC1	0	104	-55	89	-1.3	i	0.73
O=C(CCCC(=O)NCc1ccccc1)NCc1ccccc1	-3	104	3	102	0.1	i	0.83
COc1ccc(NC(=O)c2c(SC)nsc2SC)cc1	-1	107	x	x	-2.1	i	0.88
COc1ccc(C(=O)OC(C)CN2CCN(C)CC2)cc1OC (configuration not stated)	-1	101	x	x	-3.3	i	1
COc1ccc(NC(=O)N2CCCC2C(=O)Nc2ccc(C)cc2)cc1 (configuration not stated)	-12	96	0	111	-1.4	i	0.91
CCOc1cc(C)c(Cl)cc1S(=O)(=O)n1ccnc1	-1	101	42	75	x	i	1.1
c1ccc(-c2nnc(CSc3ccc4c(c3)OCCO4)o2)cc1	-5	96	x	x	x	i	0.99
Cc1c(/C=N/Nc2ccc([N+](=O)[O-])cn2)c2ccccc2n1Cc1ccccc1	x	95	x	x	x	i	0.69
CC(C)C(NC(=O)OC(C)(C)C)C(=O)NC(CCC(=O)OCc1ccccc1)C(N)=O (configuration not stated)	-3	99	x	x	x	i	0.95
Cc1ccc(-c2nn(C)c(=O)c3ccccc23)cc1CNC(=O)CSc1nc2ccccc2o1	-6	101	x	x	-0.9	i	0.99
O=C(CN(Cc1ccccc1)S(=O)(=O)c1ccccc1)N/N=C/c1ccc2c(c1)OCO2	-3	109	29	110	-0.6	i	0.96
O=C(NC1CCCCC1)Oc1cccc2ccccc12	-3	104	-23	113	x	i	0.89
CCc1ncc(C(O)c2cccc(OC)c2OC)n1C (configuration not stated)	-5	99	-15	135	-3.9	i	0.78

Part of the list above with just Insulin prom inh cell count and HSV replic up:
| smiles | Insulin prom inh cell count | HSV replic up |
| --- | --- | --- |
| CC(C)C(NC(=O)OC(C)(C)C)C(=O)NC(CCC(=O)OCc1ccccc1)C(N)=O (configuration not stated) | x | i |
| Cc1ccc(-c2nn(C)c(=O)c3ccccc23)cc1CNC(=O)CSc1nc2ccccc2o1 | x | i |
| O=C(CN(Cc1ccccc1)S(=O)(=O)c1ccccc1)N/N=C/c1ccc2c(c1)OCO2 | 110 | i |
| O=C(NC1CCCCC1)Oc1cccc2ccccc12 | 113 | i |
| CCc1ncc(C(O)c2cccc(OC)c2OC)n1C (configuration not stated) | 135 | i |

(continued)
SMILES	PKD1 kinase inh	RGS16-Gao	Insulin prom inh	Insulin prom inh cell count	GALR2 agonist	HSV replic up	HSV replic up primary fold
O=[N+]([O-])c1ccccc1/C=C\C=N\N1CCN(c2ccccc2)CC1	-7	128	x	x	x	i	1
O=C(Nc1ccccc1)c1ccccc1N=Cc1ccccc1O	0	106	27	112	-2.9	i	1
Oc1ccccc1/C=N/n1c(-c2cccs2)n[nH]c1=S	-10	100	x	x	-1.4	i	0.82
COc1ccc(C(=O)C(C)N(C(=O)c2ccc(Cl)cc2Cl)N2C(=O)C3C4C=CC(C4)C3C2=O)cc1 (configuration not stated)	-5	102	-76	103	-2.8	i	0.8
CN1C(C(=O)NCc2cccc(Br)c2)CC2Cn3c(nc4cc(Cl)c(Cl)cc43)C21 (configuration not stated)	x	100	x	x	x	i	0.97
COc1ccc(NC(=S)N(CCCN2CCCC2)Cc2cccs2)cc1	-7	124	-22	99	-0.1	i	0.92
Clc1ccccc1-c1ncnc2ccc(Br)cc12	-3	106	6	116	x	i	0.89
Cc1cc(O)c(C=O)c2c1C(=O)Oc1c(CO)c(O)c3c(c1O2)C(O)OC3=O (configuration not stated)	12	102	x	x	x	i	0.88
Cc1cc(C)n(-c2nc3ccccc3s2)n1	0	109	-7	151	x	i	0.99
Cc1cccc(NC(=S)NNC(=S)NCc2ccccc2)c1	-4	96	31	47	-1.5	i	0.78
CSc1nnc(Nc2ccccc2C)s1	-5	99	x	x	-1.8	i	0.89
Cn1c(SCC(=O)O)nnc1-c1cccc(NC(=O)c2cccc3ccccc23)c1	x	95	x	x	x	i	1.1
CCOc1ccccc1C(=O)OCC(=O)Nc1cc(Cl)ccc1Oc1ccccc1	-6	103	x	x	-0.5	i	1
CC1CC(C)(C)NC(=S)N1CCC(=O)N1c2ccccc2CC1C (configuration not stated)	-4	99	20	116	x	i	0.97
C/C(=N\NC(=O)C(NC(=O)c1ccccc1)C(C)C)c1ccccc1 (configuration not stated)	-1	101	x	x	-1.9	i	1
O=C1NCCN(Cc2cccc(Oc3ccccc3)c2)C1CC(=O)N1CCCCO1 (configuration not stated)	-4	101	-55	73	x	i	0.97
CC(=O)c1ccc(N=C2SCCCN2C(=O)C2CCCCC2)cc1	-4	91	0	91	x	i	1
C/C(CC(=O)NCc1ccco1)=N\NC(=O)Cc1ccc(-c2ccccc2)cc1	10	101	-27	98	-0.2	i	1.1
O=C(NCc1ccc2c(c1)OCO2)c1cccc(C(=O)NCc2ccc3c(c2)OCO3)c1	12	103	67	76	-1.6	i	1
CCOC(=O)N1CCN(c2cc(N3CCOCC3)c(F)cc2[N+](=O)[O-])CC1	3	101	-79	101	x	i	1.1
CCc1cn([C@H]2C[C@H](O)[C@@H](CO)O2)c(=O)[nH]c1=O	0	218	-27	55	-0.4	i	0.83
COc1ccc(NC(=O)CC2Nc3ccccc3NC2=O)c([N+](=O)[O-])c1 (configuration not stated)	-4	98	x	x	x	i	0.97
CC(CC(=O)O)Nc1ccccc1O (configuration not stated)	-5	122	x	x	x	i	1.1
CC1Cc2ccccc2N1C(=O)COC(=O)c1ccc(O)cc1 (configuration not stated)	x	102	x	x	x	i	0.94
c1ccc(-c2ccccc2-c2nc(-c3cccnc3)no2)cc1	-11	92	13	138	0.7	i	0.94
CCOc1ccccc1Nc1nnc(SCC(=O)NC(=O)c2cccn2C)s1	-5	43	6	129	3.1	i	0.97
CC(CC(=O)Nc1nncs1)c1ccccc1 (configuration not stated)	-1	97	0	102	-3.6	i	0.93
Oc1ccc(/C=N/NC(=S)Nc2cccnc2)c(O)c1	7	103	15	85	-0.2	i	0.83
COC(=O)CN(C#N)c1nc(OC)nc(N(C)C)n1	-3	99	x	x	0.5	i	0.69
COc1ccc(S(=O)(=O)N2CCCCC2)cc1NC(=O)CN1CCN(C(C)=O)CC1	-6	124	45	116	x	i	1.1
CCCNC(=O)CS(=O)(=O)Cc1nc(-c2ccccc2C)oc1C	-4	109	x	x	-1.6	i	0.78
COc1cc(/C=N/NC(=O)c2cccnc2)ccc1OS(=O)(=O)c1cc(C)ccc1C	3	53	16	78	-1.0	i	0.78
Cc1ccc(C)c(NC(=O)CSc2nnc3n2CCCCC3)c1	2	96	x	x	1.4	i	0.89
CCCOC(=O)c1ccc(NC(=O)c2c(Cl)ccc(Cl)c2OC)cc1	-8	101	-6	105	-2.1	i	1.1
Cc1ccc(S(=O)(=O)Nc2nc(C)cc(N/N=C/c3ccc(O)cc3)n2)cc1	15	102	x	x	0.3	i	0.9
CC(=O)N(Cc1cccs1)Cc1cc2ccc(C)c(C)c2nc1Cl	-4	111	27	143	x	i	0.91
O=c1[nH]c2c(c3c1CCCC3)CCCC2	1	102	x	x	-0.5	i	1.2
CCOC(=O)/C=C/CN(C(=O)OC(C)(C)C)S(=O)(=O)N1CC=CC1	x	100	x	x	x	i	1.3
CCCOC(=S)NC(=O)c1sc2ccccc2c1Cl	-9	x	7	110	-3.5	i	0.9
Cc1cccc(C)c1N1CC(=O)N(c2c(C)cccc2C)CC1=O	7	102	-8	73	1.4	i	1.1
COc1ccc(CCNC(=O)Nc2ccc([N+](=O)[O-])cc2)cc1OC	1	99	x	x	x	i	1.1
Cc1nn(-c2ncc(C(F)(F)F)cc2Cl)c(=O)n1-c1ccccc1	3	102	-8	120	-1.9	i	0.97
Cc1cc(C)nc(Nc2n[nH]c(-c3cccc4ccccc34)n2)n1	-9	103	-54	108	-1.9	x	x
Cc1cccc(-n2nc(C)cc2N)c1	2	99	-14	134	-3.4	i	0.86
CN(C)c1ccnc(N(Cc2ccccc2)Cc2ccccc2)c1C#N	-3	100	17	86	-0.2	i	0.96
Cc1ccc(C(=O)NCCN2CCNC2=O)cc1	x	106	x	x	x	i	1.1
CC(C)OC(=O)CSc1nnc(-c2ccco2)n1N	2	99	52	97	-1.2	x	x
